Mtb hypoxia inh = reduces hypoxia-regulated biosensor signal in M. tuberculosis; M. tuberculosis hypoxia-regulated fluorescent reporter, fluorescence; fluorescence inhibition, % (concentration not given with the values); 300,000 tested, 0.1% active; AID 1159583;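 active = 35 to 45% if threefold the growth effect, above 45% if 1.5-fold the growth effect; inactive = the rest, general growth blockers included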;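 note: wells of about 50 µL received 100 nL stock; 0% = vehicle wells and 100% = reference inhibitor wells; whole bacteria with a GFP reporter of the hypoxia response; strong numbers were not always called active; many hits fall short of the cut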
PrP UTR inh = suppresses PrP 5' UTR mRNA reporter expression. cell-based PrP 5' UTR mRNA reporter, plate reader. inhibition, % (no concentration beside the values). 340,000 tested, 0.35% active. AID 488862;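 active = every replicate at 50% or more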;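 note: 0 = median of the neutral control wells; tested in H4 reporter cells; numbers are from one replicate; inactives centre near -14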
BJeLR viability = BJeLR cell viability loss; BJeLR (HRASV12) viability, CellTiter-Glo ATP luminescence, 48 h; reference of the scale not given here; inhibition, % (concentration not given with the values); 300,000 tested, 0.17% active;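 active = replicate mean above 50%; inconclusive = above 50% but judged a plate artefact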;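 note: 50 nL library stock added to about 25 µL; numbers are from one replicate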
RN4220 kill = S. aureus RN4220 growth inhibition; OD600, 16 h; 330,000 tested, 0.33% active; inhibition, % (test concentration not listed);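 active = z-score of -3 or lower and OD600 up to 0.18 on both plates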;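 note: plate controls were untreated cells for no effect and reference antibiotic for full effect; stock transfer was 100 nL into about 80 µL; one replicate is shown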
ugtP null kill = growth inhibition of S. aureus ugtP deletion strain; growth inhibition, % (no concentration beside the values); S. aureus RN4220 ugtP deletion, OD600 growth, 16 h; some inactives read as strong as hits; 330,000 tested, 0.54% active;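 active = z-score under -3 and OD600 up to 0.15 on both plates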;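 note: plate controls were untreated wells for no effect and antibiotic for full effect; wells of about 80 µL received 100 nL stock; the first replicate is given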
Bead autofluor = flagged as autofluorescent in microsphere protease counterscreen; compound autofluorescence counterscreen, microsphere flow cytometry; hits give high values; fluorescence intensity (test concentration not listed); 360,000 tested, 3.1% active;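 active = at least 3 SD above the mean of all compounds, about 16000 in these data; inconclusive = too few beads counted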;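 note: 100 nL of 1 mM stock went into each well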
Mtb hypoxia inh growth = further read-out of Mtb hypoxia inh, marked with its call; growth inhibition, %; measured here: M. tuberculosis growth (absorbance);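 0% = vehicle and 100% = reference antibiotic; read after six days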
The depositor's hits bear a star; ? = inconclusive; nt = not tested or not shown.

SMILES	Mtb hypoxia inh	Mtb hypoxia inh growth	PrP UTR inh	BJeLR viability	RN4220 kill	ugtP null kill	Bead autofluor
CCOc1ccc(S(=O)(=O)N2CCN=C2Cc2ccccc2)cc1C	7	3	-3	0	9.7	3	5359
NC1CCCCC1N=Cc1c(O)n(Cc2ccc(F)cc2)c(=O)[nH]c1=O (stereo not drawn)	6	3	-8	7	-16	-3	2867
Clc1ccccc1Cc1noc(CN2CCCCC2CCc2ccccn2)n1 (stereo not drawn)	14	1	-20	4	-2.6	19	2466
CC(=O)Nc1cccc(NC(=O)c2ccco2)c1	15	10	-24	2	3.6	8	7228
Cc1ccc(-n2nc(C)c(C(=O)Nc3cccc(C(=O)NC4CC4)c3)n2)c(C)c1	-2	12	-5	nt	-4.2	-5	3544
COc1ccc2cc(S(=O)(=O)N3CCOCC3)ccc2c1	-1	5	-3	-4	6.2	-8	4464
CC(Sc1nnc(N)s1)C(=O)NNC(=O)c1cccc(Cl)c1 (stereo not drawn)	-6	7	-15	nt	5.3	5	4159
CN1CCC(=O)N([C@H](CSc2ccc(Br)cc2)c2ccccc2)CC1	nt	nt	-33	-6	nt	nt	3259
Cc1ccccc1Nc1nc(N)nc(-c2oc3ccccc3c2C)n1	-6	2	-81	-1	-4.3	-17	4873
C=CCNC(=S)N(Cc1ccccc1)Cc1ccccc1	-6	-6	-25	-4	9.3	5	4162
CC(=O)C1=C(C)Nc2ncnn2C1c1ccccc1Cl (stereo not drawn)	6	4	-8	-4	2.1	-3	10411
N#Cc1ccccc1OCC(=O)Nc1cc(S(=O)(=O)N2CCCCC2)ccc1N1CCOCC1	-1	0	-6	nt	8.0	-1	2971
O=C(CC1C(=O)NCCN1Cc1cccc(F)c1)NC1CCC1 (stereo not drawn)	8	2	-2	-3	2.8	8	4669
O=C(c1cc2ccccc2o1)N1CCN(S(=O)(=O)c2c(F)cccc2F)CC1	6	4	4	nt	2.2	7	20189*
CN(C)S(=O)(=O)c1ccc(NC(=O)/C=C/c2ccccc2Cl)cc1	4	-14	-32	9	0.6	-19	2713
CCc1ccc(OCC(=O)Nc2ccc(-c3nc4ccccc4o3)c(O)c2)cc1	nt	nt	-41	12	2.4	4	2529
O=S(=O)(NCCCCCNS(=O)(=O)c1c(F)cccc1F)c1ccc2c(c1)OCCO2	-1	1	-12	nt	5.3	3	3996
CCC(c1nnnn1Cc1ccco1)N(Cc1cc2cc(C)cc(C)c2[nH]c1=O)CC1CCCO1 (stereo not drawn)	nt	nt	-11	0	3.3	-11	2288
Cc1cc(C(=O)N2CCc3ccccc3C2)on1	15	11	-17	-10	2.9	-1	5659
COc1cc2cc(CN(Cc3cccs3)C(=S)Nc3ccccc3)c(=O)[nH]c2cc1OC	18	9	-14	7	42	-17	2487
CCCc1nc2ccccc2[nH]1	10	7	-26	3	13	-5	6433
O=S(=O)(NCc1ccc2c(c1)OCO2)c1cccc(F)c1	6	8	-8	3	6.1	14	3762
CC(C(=O)O)n1nnc2ccccc21 (stereo not drawn)	-2	-4	-20	0	-0.5	-3	5939
CCOC(=O)c1nn(-c2ccc(F)cc2)c(=O)cc1OCC(=O)Nc1cccc(C)c1	-9	-2	-12	-4	7.1	9	4041
COC(=O)N/N=C/c1cn(Cc2ccccc2Cl)c2ccccc12	nt	nt	-87	-3	nt	nt	2058
C/C(=N\Nc1ccc(C)c(Cl)c1)c1ccncc1	nt	nt	-22	-6	nt	nt	5794
COc1ccc(C(=O)NC(C)C2CC3CCC2C3)cc1 (stereo not drawn)	nt	nt	-9	-6	0.9	5	4059
O=C(N/N=C/c1ccncc1)c1cccc(NC(=O)c2ccccc2Cl)c1	nt	nt	-15	-2	nt	nt	2069
COc1ccc(Nc2nc(C)cc(-c3cc(-c4ccccc4)on3)n2)cc1	-2	7	-11	-7	0.4	-14	3278
CCc1ccc(-c2nc(CCl)cs2)cc1	6	6	-87	6	13	13	2513

Full records from above. Values in the order: Mtb hypoxia inh	Mtb hypoxia inh growth	PrP UTR inh	BJeLR viability	RN4220 kill	ugtP null kill	Bead autofluor
COC(=O)N/N=C/c1cn(Cc2ccccc2Cl)c2ccccc12 across the screens: nt	nt	-87	-3	nt	nt	2058
CCCc1nc2ccccc2[nH]1 across the screens: 10	7	-26	3	13	-5	6433
O=C(N/N=C/c1ccncc1)c1cccc(NC(=O)c2ccccc2Cl)c1 across the screens: nt	nt	-15	-2	nt	nt	2069
O=S(=O)(NCc1ccc2c(c1)OCO2)c1cccc(F)c1 across the screens: 6	8	-8	3	6.1	14	3762
COc1ccc(Nc2nc(C)cc(-c3cc(-c4ccccc4)on3)n2)cc1 across the screens: -2	7	-11	-7	0.4	-14	3278

More results
SMILES	Mtb hypoxia inh	Mtb hypoxia inh growth	PrP UTR inh	BJeLR viability	RN4220 kill	ugtP null kill	Bead autofluor
O=C(COC(=O)c1cc(S(=O)(=O)N2CCCCC2)ccc1N1CCOCC1)NC1CCS(=O)(=O)C1 (stereo not drawn)	12	5	-3	-6	7.9	5	4006
CC1CCCCN1CCCNC(=O)C1CCCN(c2ncnc3c2nc2n3CCCCC2)C1 (stereo not drawn)	7	-1	-17	2	5.5	9	4629
CCN(CC)S(=O)(=O)c1cccc(C(=O)OCc2cc(=O)n3nc(C)sc3n2)c1	9	5	-15	-7	2.6	2	6638
Cc1ccsc1C(=O)Nc1nccs1	-3	4	-46	5	0.0	3	6239
O=C(Nc1cccnc1)c1ccc(N2CCCC2)c([N+](=O)[O-])c1	17	7	-48	1	5.7	7	4832
COc1cc2c(C(=O)NCc3ccccn3)cn(CC(C)C)c(=O)c2cc1OC	11	5	-36	0	4.1	14	5191
CCN(CC(=O)NCc1cccs1)C(=O)CCc1c[nH]c2ccccc12	-2	-2	-16	-8	11	4	4397
COc1cc(/C=C2\SC(=S)N(NS(=O)(=O)c3ccccc3)C2=O)cc(OC)c1OC	15	3	-17	-4	15	2	4472
Cc1oc(-c2ccccc2Cl)nc1CN(C)C(C)c1ccon1 (stereo not drawn)	11	5	-10	1	1.4	14	3548
Cc1ccc(N2C(=O)CC(Sc3ccccc3C(=O)O)C2=O)c([N+](=O)[O-])c1 (stereo not drawn)	-2	2	-28	7	4.7	4	4794
CCc1ccc(Nc2ccc(C(N)=O)cc2[N+](=O)[O-])cc1	-15	6	-11	2	4.2	4	2403
Cn1c(COc2ccc(C(=O)O)cc2)nc2ccccc21	14	2	2	-4	3.6	3	3358
Cc1cc(OCC(=O)N(C)C)c2c(-c3ccccc3)cc(=O)oc2c1	nt	nt	-11	2	1.8	4	5694
CCOc1ccc(S(=O)(=O)NCc2ccccn2)cc1NC(=O)c1ccccc1	2	4	-29	19	2.3	3	?
O=C1c2ccccc2NC(c2ccc(O)cc2)N1/N=C/c1ccc(O)cc1 (stereo not drawn)	nt	nt	-57	-18	nt	nt	2603
Nc1nnc(SCC(=O)OCC(=O)NC23CC4CC(CC(C4)C2)C3)s1	17	0	-33	0	0.5	-2	4502
CCCSc1nc(C)cc(=O)[nH]1	8	8	-16	-4	7.0	2	2690
O=C(CSc1ncn[nH]1)N1N=C2/C(=C/c3ccco3)CCCC2C1c1ccco1 (stereo not drawn)	2	5	-9	-5	2.7	-18	10556
CCOc1cc2[nH]c(=S)n(CCC(=O)N3CCc4ccccc4C3)c(=O)c2cc1OCC	11	6	9	-7	9.3	8	9776
Cc1cccc(-c2nc(C#N)c(N3CCCCC3)o2)c1	-4	2	-45	-2	8.8	11	3032
CCn1c(SCC(=O)OC)nc2cc(S(=O)(=O)N3CCOCC3)ccc21	0	2	-9	-1	2.5	2	5030
O=C(NCCCN1CCOCC1)c1cc(-c2cccs2)on1	-3	-6	-25	4	-1.6	2	7991
Cc1ccc2nc(NC(=O)C3CCN(S(=O)(=O)c4cccnc4)CC3)sc2c1	3	3	10	-2	-2.4	11	4490
COc1cccc(CN(C)C(=O)c2ccc(S(=O)(=O)Nc3ccccc3F)cc2)c1OC	2	2	-11	nt	7.7	6	nt
Cc1ccc(Cn2ccc(NC(=O)c3cc(-c4ccco4)on3)n2)cc1	-2	6	-27	7	3.0	-8	21800*
CCc1ccc(NC(=O)N2CCN(c3ccccc3)CC2)cc1	-1	-1	-15	4	-1.5	-1	2112
CN1CCN(S(=O)(=O)c2ccc(Cl)s2)CC1	-6	2	5	3	0.6	-1	5913
CC(=O)Nc1ccc(S(=O)(=O)CCC#N)cc1	1	-2	4	0	-1.2	5	3267
CCN(CC(=O)Nc1c(F)cccc1F)C(=O)c1cc(S(=O)(=O)N(CC)CC)ccc1N1CCCCC1	2	7	0	-10	2.9	2	6255
COC(=O)[C@@]1(Cc2ccccc2)[C@H]2C(=O)N(Cc3ccccc3)C(=O)[C@H]2[C@H]2CN(C)C(=NCc3ccccc3)N21	0	4	-1	nt	-0.5	3	3148

Two entries from above, as labelled records.
molecule: Cc1ccc(Cn2ccc(NC(=O)c3cc(-c4ccco4)on3)n2)cc1
  Mtb hypoxia inh: -2 | Mtb hypoxia inh growth: 6 | PrP UTR inh: -27 | BJeLR viability: 7 | RN4220 kill: 3.0 | ugtP null kill: -8 | Bead autofluor: 21800*

molecule: CN1CCN(S(=O)(=O)c2ccc(Cl)s2)CC1
  Mtb hypoxia inh: -6 | Mtb hypoxia inh growth: 2 | PrP UTR inh: 5 | BJeLR viability: 3 | RN4220 kill: 0.6 | ugtP null kill: -1 | Bead autofluor: 5913

Look-ups from above:
`COC(=O)[C@@]1(Cc2ccccc2)[C@H]2C(=O)N(Cc3ccccc3)C(=O)[C@H]2[C@H]2CN(C)C(=NCc3ccccc3)N21` in Mtb hypoxia inh growth is entered as 4
`COc1cccc(CN(C)C(=O)c2ccc(S(=O)(=O)Nc3ccccc3F)cc2)c1OC` in Mtb hypoxia inh growth is entered as 2
`CC(=O)Nc1ccc(S(=O)(=O)CCC#N)cc1` in Mtb hypoxia inh growth is entered as -2
`Cc1ccc(Cn2ccc(NC(=O)c3cc(-c4ccco4)on3)n2)cc1` in PrP UTR inh is entered as -27
`CCn1c(SCC(=O)OC)nc2cc(S(=O)(=O)N3CCOCC3)ccc21` in RN4220 kill is entered as 2.5
`Cc1ccc2nc(NC(=O)C3CCN(S(=O)(=O)c4cccnc4)CC3)sc2c1` in RN4220 kill is entered as -2.4

(next part)
SMILES	Mtb hypoxia inh	Mtb hypoxia inh growth	PrP UTR inh	BJeLR viability	RN4220 kill	ugtP null kill	Bead autofluor
Cc1cc(OC(C)C(=O)NCCCN2CCCC2=O)c2c(C)c(C)c(=O)oc2c1 (stereo not drawn)	11	-1	-15	9	5.5	-6	5022
COCCCn1c(C)cc(C(=O)CN2c3cccc4cccc(c34)S2(=O)=O)c1C	12	5	-19	nt	3.8	9	3726
CC(C)c1nnc2c(N(C)S(=O)(=O)c3ccccc3)nc3ccccc3n12	5	0	-17	-4	1.5	7	5558
COc1ccc(-c2cc(C(=O)N/N=C(\C)c3cccnc3)c3ccccc3n2)c(OC)c1	nt	nt	-8	0	nt	nt	6601
Cc1ccc(O)c(NC(=O)c2cccc(NC(=O)c3ccco3)c2)c1	nt	nt	-15	-2	1.5	-4	4794
COC(=O)c1ccc(COc2ccc(C#N)cc2)o1	12	8	-37	7	2.4	5	3687
COc1ccccc1C(=O)NCC(=O)OC(C)C(=O)N1CCOCC1 (stereo not drawn)	13	9	-12	-2	-0.3	-1	5560
Cc1cc(S(=O)(=O)N(Cc2ccc(C(C)C)cc2)CC2CCCO2)ccc1-n1cnnn1 (stereo not drawn)	13	9	-2	2	7.4	-11	5255
COC(=O)C1CCCCN1C(=O)c1ccc(OC2CCN(C(C)=O)CC2)c(OC)c1 (stereo not drawn)	-2	8	-6	-6	-1.1	1	5914
NC(=O)c1c(NC(=O)C(=O)NCCCN2CCOCC2)sc2c1CCCC2	0	1	-17	5	1.2	1	5185
CSCCC(NC(=O)c1ccco1)C(=O)OCC(=O)N(Cc1ccccc1)C(C)(C)C (stereo not drawn)	9	7	6	7	-1.3	3	?
O=C(C1CCN(S(=O)(=O)c2cnc[nH]2)CC1)N(CCc1ccccc1)Cc1ccccc1	-5	0	-9	-3	0.7	3	4140
CC(=NNC(=O)CCCNc1ccccc1)c1ccncc1	7	2	nt	nt	2.3	0	nt
CC1CCN(C(=O)C(C)Cl)CC1 (stereo not drawn)	1	6	-15	8	3.3	5	4462
COc1ccccc1C(=O)Nc1nc(-c2ccc(S(=O)(=O)N3CCOCC3)cc2)cs1	4	17	-23	8	-7.1	-16	4245
